# KCNQ2 enhance = potentiators of rat KCNQ2 potassium channel. CHO-K1 KCNQ2, FluxOR thallium flux fluorescence; stronger effect = higher value. actives 0.54% (n = 310,000). O88943. B-score at 10 µM;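 active = fluorescence ratio B-score at least 3 SD of library B-scores, with initial fluorescence B-score within 3 SD, cut at about 5.3 in these data; same plate scores as AID 2156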;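 note: B-score of peak minus minimum over baseline fluorescence ratio after K+ and Tl+ stimulus; positive B-score means potentiation of KCNQ2 with more thallium influx and brighter signal; only the inactives scoring about 0 or higher are listed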
# Target sequence (O88943 whole entry, looked up): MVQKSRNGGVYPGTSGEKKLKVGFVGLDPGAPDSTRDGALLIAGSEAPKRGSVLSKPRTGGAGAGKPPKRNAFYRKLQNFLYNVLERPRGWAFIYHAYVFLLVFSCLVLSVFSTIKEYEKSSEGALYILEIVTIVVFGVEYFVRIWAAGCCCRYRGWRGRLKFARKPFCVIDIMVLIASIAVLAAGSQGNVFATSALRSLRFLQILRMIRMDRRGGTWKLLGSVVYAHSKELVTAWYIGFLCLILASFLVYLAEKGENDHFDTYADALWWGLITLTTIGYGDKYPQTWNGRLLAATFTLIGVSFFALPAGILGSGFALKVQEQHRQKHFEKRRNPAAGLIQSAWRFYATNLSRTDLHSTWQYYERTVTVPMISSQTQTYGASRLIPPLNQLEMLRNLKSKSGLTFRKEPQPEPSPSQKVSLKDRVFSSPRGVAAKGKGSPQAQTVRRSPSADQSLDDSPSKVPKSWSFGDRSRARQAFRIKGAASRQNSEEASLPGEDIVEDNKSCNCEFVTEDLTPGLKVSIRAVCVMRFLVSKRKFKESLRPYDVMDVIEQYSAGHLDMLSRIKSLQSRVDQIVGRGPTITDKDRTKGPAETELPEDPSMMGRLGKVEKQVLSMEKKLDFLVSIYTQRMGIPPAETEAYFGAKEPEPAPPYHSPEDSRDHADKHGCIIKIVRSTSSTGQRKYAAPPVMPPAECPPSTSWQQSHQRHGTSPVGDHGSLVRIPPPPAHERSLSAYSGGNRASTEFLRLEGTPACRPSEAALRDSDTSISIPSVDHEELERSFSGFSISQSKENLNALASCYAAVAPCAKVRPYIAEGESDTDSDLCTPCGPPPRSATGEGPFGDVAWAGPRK
# KCNQ2 enhance baseline = further read-out of KCNQ2 enhance, marked with its call; B-score; compound at 10 µM; measured here: initial fluorescence intensity artifact check;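 brightness before thallium and not channel activity; 0 = typical well and far values either way flag optical interference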
# * = called active by the depositor. This is a subset; count on the stated rates, not on these rows.
KCNQ2 enhance	KCNQ2 enhance baseline	mol
1.4	-0.22	CCCCn1c(N)c(N(CCOC)C(=O)CN(C)S(=O)(=O)c2ccc(F)cc2)c(=O)[nH]c1=O
1.5	-2.2	CCOC(=O)Cn1c2ccccc2c2nc3ccccc3nc21
0.07	-2.1	CCOc1ccc(CC(=O)Nc2nccs2)cc1OCC
0.26	0.37	Cc1cc(C)c(S(=O)(=O)N2CCN(C(=O)C(C)Cn3cncn3)CC2)c(C)c1 (stereo unspecified)
0.06	0.93	COc1cc2ccccc2c2c1CCCC2=O
1.6	-3.5	COc1cc(C(=O)N/N=C/c2ccsc2C)cc(OC)c1OC
2.1	-2.9	O=C(NN1CCCCC1)c1cccc(COc2ccc(Cl)cc2)c1
2.6	0.08	c1ccc(C2Nc3ccccc3Oc3ccccc32)cc1 (stereo unspecified)
0.88	0.06	Nc1nonc1C(=O)NCCNc1ncccc1[N+](=O)[O-]
1.8	0.07	Cc1ccc(NC(=O)C2CCN(S(=O)(=O)c3c(C)n[nH]c3C)CC2)c(C)c1
1.7	0.06	O=C(CN1CCCCC1)Nc1cccc2c1OCO2
0.75	2.7	COc1ccc(C(=O)c2ccc(CC#N)s2)cc1
0.01	-2.1	Cc1cccn2c(=O)c3cc(C(=O)NCC4CCCO4)c(=N)n(CCN4CCOCC4)c3nc12 (stereo unspecified)
1.2	-0.09	CCN1CCCC1CNC(=S)Nc1ccc(C(C)=O)cc1 (stereo unspecified)
0.57	0.32	CC(C)c1ccc2c(c1)[C@H]1OCC[C@H]1[C@@H](c1cccs1)N2

# Single values from the list.
# CC(C)c1ccc2c(c1)[C@H]1OCC[C@H]1[C@@H](c1cccs1)N2 in KCNQ2 enhance baseline → 0.32
# CCOC(=O)Cn1c2ccccc2c2nc3ccccc3nc21 in KCNQ2 enhance → 1.5

# Continuation.
KCNQ2 enhance	KCNQ2 enhance baseline	mol
1.9	1.5	COC(=O)c1cccc(NC(=O)CSc2nc(C)cc(=O)[nH]2)c1
0.39	-0.01	COc1cc(CCC(=O)OCC(=O)NC(=O)c2ccc(Cl)cc2)cc(OC)c1OC
0.39	-0.4	CCOC(=O)c1ccc(Oc2nc(NC)nc(OC)n2)cc1
1.3	-2.6	COC(=O)C1=C(CCc2ccccc2)NC(=O)NC1c1ccc(Cl)cc1 (stereo unspecified)
1.8	-1.4	O=C(NC(Cc1c[nH]c2ccccc12)C(=O)NCc1ccc(F)cc1)OCc1ccccc1 (stereo unspecified)
0.53	-0.53	CCN(CC)CCC(=O)NC(C)(C)Cc1ccc(O)cc1
0.35	-1.2	CCOC(=O)CN1CC23C=CC(O2)C(C(=O)NC2CCCCCC2)C3C1=O (stereo unspecified)
1.3	-2.1	CC(=O)c1c(C(C)=O)c(C)n(NC(=O)c2ccccc2O)c1C
0.36	-1.1	COCCn1c(-c2ccc(F)cc2)nc2oc3cc(OC)ccc3c(=O)c2c1=O
4.8	3.2	Cc1nc2c(C(=O)NCCC3=CCCCC3)c[nH]n2c(=O)c1Cl
0.72	2	Cc1ccc(C(c2nnnn2CCC(C)C)N2CCN(C)CC2)cc1 (stereo unspecified)
0.35	1.7	Cc1nnc2n(-c3ccccc3)c(=O)c3c4c(sc3n12)CC(C)CC4 (stereo unspecified)
2.5	-1	COc1ccc(NC(=O)CN2CCN(c3ccc(F)cc3)CC2)cc1
0.41	-1.9	CC(=O)c1cccc(-n2nnnc2SCC(=O)NNC(=O)C(C)C)c1
0.02	-1.8	CCSc1nnc(-c2c[nH]c3ccccc23)o1
0.81	-1.1	O=C(COC(=O)/C=C/c1cccc(F)c1)Nc1ccc2[nH]c(=O)[nH]c2c1
4.3	-0.96	Cc1cc(Oc2ccc(Br)cc2)nc(SCC(=O)c2ccccc2)n1
0.74	-0.27	Cc1cc(C(=O)NC2CCCc3c2cnn3-c2cc(F)cc(F)c2)nn1C (stereo unspecified)
11*	-0.93*	COc1ccc(N2CCN(Cc3nc(N)nc(Nc4ccc(C)c(Cl)c4)n3)CC2)cc1
0.81	0.71	CC(=O)c1cccc(NC(=O)CN(C)Cc2ccc(OC(F)F)cc2)c1
1.7	-1.3	CCC(=O)OCCNc1nc(-c2ccccc2)nc2ccccc12
0.21	-0.31	Cc1ccc(OCC(=O)NCCNC(=O)c2cccnc2)cc1C
0.13	-1.1	CCOC(=O)c1sc(NC(=O)c2ccc(S(=O)(=O)N3CCCCC3)cc2)nc1-c1ccccc1
1.4	-0.36	CCOC(=O)C1CCCN(C(=O)C2CCN(S(=O)(=O)N3CCC4(CC3)OCCO4)CC2)C1 (stereo unspecified)
0.48	-1.5	CCCn1nnc2sc3c(c2c1=O)CCC(C)C3 (stereo unspecified)
0.51	-0.02	O=C(CNCc1ccco1)Nc1ccccc1-n1cccc1
0.02	-3.1	COC(=O)NNC(=O)c1ccccc1OC
0.65	-2.8	Cc1ccsc1/C=N/NC(=O)c1ccncc1
12*	-0.2*	COc1ccccc1NC(=O)c1c(N=Cc2ccccc2O)cnn1C
2.2	0.35	Cc1ccc(N2C(=O)N3[C@H](c4ccc(Cl)cc4)[C@@H]4C(=O)N(C5CCCCC5)C(=O)[C@@H]4[C@]3(Cc3ccccc3)C2=O)cc1
0.3	0.2	COC(=O)c1ccc(NC(=O)C(=O)N2CCCC2)cc1
0.39	0.79	Cc1ccsc1C(=O)NCCc1nnc2ccccn12
0.04	0.25	Cc1ccc(S(=O)(=O)Nc2nc3ccccc3s2)cc1
0.44	0.65	COc1ccc(N2CCN(C(=O)CSc3nnc4nc(C)cc(C)n34)CC2)cc1
0.61	-1.9	COc1ccc(-c2onc3ccc(Cl)cc23)cc1
0.69	0.85	Cc1nn2c3cc(N4CCOCC4)ccc3nc2c2ccccc12
2.6	-0.02	c1nnc2c3c4c(sc3ncn12)CCCC4
0.06	1.1	COc1c2c(nc3occc13)C(CCC(C)(C)O)(OC)C(O)CC2 (stereo unspecified)
0.14	-1.7	COc1cc(-n2c(C)nc3cc(C(=O)O)ccc32)cc(OC)c1OC
1.4	-1.6	CCC(C)[C@H](NC(=O)Nc1ccc(S(N)(=O)=O)cc1)C(=O)OC (stereo partly specified)
0.24	-1.2	O=C(c1cc(=O)[nH]c2ccccc12)N1CC=C(c2ccccc2)CC1
1.5	0.64	O=C(Nc1ccc2oc(-c3ccccc3F)nc2c1)c1cncc(Br)c1
0.75	0	COc1ccc(OC)c(NC(=O)CSC2=NN3CCCC(=O)N=C3S2)c1
0.02	-0.1	CC(C)NS(=O)(=O)c1ccc(NC(=O)C2CCCCC2)cc1
0.41	0.83	COc1ccc(NC(=O)Cn2ncn3nc(-c4ccc(OC)cc4)cc3c2=O)cc1
0.04	-0.22	CCCCn1c(N)c(N(CC(C)C)C(=O)c2ccc(S(=O)(=O)N3CCCCC3)cc2)c(=O)[nH]c1=O
0.16	0	Cc1ccc(NC(=O)c2cccs2)cc1NC(=O)c1ccccc1Cl
1.1	0.07	COC(=O)c1[nH]c(C)c(/C(O)=C2\C(=O)C(=O)N(CCN(C)C)C2c2cc(OC)ccc2OC)c1C (stereo unspecified)
0.59	-0.79	Cn1cccc1/C=N/NC(=O)c1ccco1
0.41	-2.2	CCC(=O)Nc1ccc(C(=O)n2ccc(C)n2)cc1
1.4	0.52	OCCNCCCCSc1ccc(Cl)cc1
0.08	-1.1	COCCN(C(=O)CSc1nnc(-c2cccc(F)c2)n1N)c1c(N)n(Cc2ccccc2)c(=O)[nH]c1=O
0.72	-2.8	C=CCSc1nnc(NC(=O)c2cn(CC)c3nc(C)ccc3c2=O)s1
0.76	-0.15	COc1cc(-c2cc(C(=O)Nc3ccc(S(=O)(=O)NCc4ccco4)cc3)c3ccccc3n2)cc(OC)c1OC
0.08	-0.7	CCC(CC)C(=O)NCc1ccc(OC)cc1
0.88	0.06	CC(C)(C)c1ccc(C(=O)N/C(=C\c2cccs2)C(=O)N2CCOCC2)cc1
0.23	-0.38	COc1cc(NC(=O)COc2ccccc2Cl)ccc1NC(=O)C(C)C
0.42	-0.39	CNC(=O)c1ccccc1NC(=O)C1CC(=O)N(C(C)C)C1 (stereo unspecified)
9.5*	4.8*	Cc1c(N=Cc2cc(Br)cc(Br)c2O)cccc1C(=O)O
0.34	-2.1	CC(C)N=C(Nc1cccnc1)c1ccccc1

# Going on with the list:
KCNQ2 enhance	KCNQ2 enhance baseline	mol
1	0.89	COc1ccc(CCNC(=O)c2nnn(CC(=O)Nc3ccccc3)c2N)cc1OC
2.4	-0.41	CC1(C)CCCN(C(=O)c2coc(=O)c(Br)c2)C1
0.67	-1.5	CCn1c(Cc2cccs2)nnc1SCC(=O)Nc1ccc(OC)c(OC)c1
0.08	0.45	COc1ccccc1NS(=O)(=O)c1cc(NC(=O)c2ccncc2)ccc1N1CCCC1
0.02	-0.07	COc1ccc(-c2nc(CS(=O)CC(=O)NC3CCCCCC3)c(C)o2)cc1 (stereo unspecified)
1	0.58	CCOC(=O)c1sc(N(Cc2ccccc2)C(=O)CN2C(=O)CN(C)C2=O)nc1C
1.5	-0.05	COc1ccc(OC)c(C(=O)N(C)C2CCCN(Cc3ccccc3F)C2)c1 (stereo unspecified)
0.13	-0.67	Cc1cc(NC(=O)c2cccc(C)c2[N+](=O)[O-])no1
1.1	0.09	COc1ccc(-c2nn(-c3ccccc3)cc2/C=C/C(=O)OCC(=O)Nc2ccccc2C#N)cc1
0.99	0.41	CCCCN(C(=O)CSCc1c(C)noc1C)c1c(N)n(CCC)c(=O)[nH]c1=O
6*	-1.4*	Cn1c(=O)c(C(=O)Nc2ccccc2S(N)(=O)=O)c(O)c2ccccc21
1.2	-0.27	O=C(Nc1cccc(C(F)(F)F)c1)Nc1ccc2[nH]c(=O)[nH]c2c1
1.3	-0.88	COc1nc(-c2ccccc2)nc(C)c1CC(=O)O
0.03	0.78	N#Cc1ccccc1Cn1c(-c2cscn2)nc2ccccc21
0.31	2.4	CC(C)=C(NC(=O)c1ccccc1)C(=O)Nc1cccc(C)c1
0.77	-2.8	Cc1nn(C(=O)N2CCOCC2)c(C)c1C
1.3	-0.46	O=C(CN(Cc1ccccc1)S(=O)(=O)c1ccccc1)NC1CC1
1.2	-2.2	COc1ccc(S(=O)(=O)N2CCC(C(=O)N3CCOCC3)CC2)cc1Cl
0.31	0.62	COc1cc(/C=N/Nc2nc3ccccc3s2)ccc1O
1.4	-0.01	COc1ccc(C2NC(=O)NC3=C2C(=O)CCC3)cc1 (stereo unspecified)
0.01	-1.4	Cc1ccccc1NC(=O)C(C)OC(=O)c1ccccc1C(=O)N(C)c1ccccc1 (stereo unspecified)
1.3	-0.5	CN(C)/C=C(/C(=O)c1ccccc1Cl)S(=O)(=O)c1ccccc1
1.3	-0.16	COc1ccc(OC/C(O)=C(\C#N)c2nc3ccccc3[nH]2)cc1
0.88	0.04	COc1ccc(C(C(N)=O)c2ncc(C(F)(F)F)cc2Cl)cc1OC (stereo unspecified)
1.3	0.17	N/C(=N\NC(=O)c1ccccc1Cl)c1cc2ccccc2oc1=O
0.59	-0.37	O=C(NCCc1csc(-c2cccnc2)n1)c1ccc(Cl)cc1
0.77	-1.4	CS(=O)(=O)Nc1ccc(-c2cn3c(n2)SCC3)cc1
2.6	-0.01	c1ccc(-n2nnnc2-n2cnc3ccccc32)cc1
0.12	3.6	CCNc1ccc(C(=O)OCC)cc1NC(=O)c1cccc(S(=O)(=O)N2CCOCC2)c1
0.01	0.21	O=C(NCc1cccs1)C1(S(=O)(=O)c2ccccc2)CC=CC1

# Compound profiles, from the list above. Screens in order: KCNQ2 enhance	KCNQ2 enhance baseline
# COc1cc(/C=N/Nc2nc3ccccc3s2)ccc1O in the list: 0.31	0.62
# COC(=O)C1=C(CCc2ccccc2)NC(=O)NC1c1ccc(Cl)cc1 (stereo unspecified) in the list: 1.3	-2.6

# (continued)
KCNQ2 enhance	KCNQ2 enhance baseline	mol
0.14	-0.62	CCc1c(C)c(C#N)c2nc3ccccc3n2c1NC
0.63	-0.13	COc1ccc(NS(=O)(=O)c2ccc(Cl)c(N)c2)cc1Br
0.07	-0.1	O=C(CSc1ccccn1)N/N=C/c1ccccc1[N+](=O)[O-]
1.2	-0.51	CC(=O)N1CCN(c2ccc(NC(=O)c3ccc(N4CCCC4)c([N+](=O)[O-])c3)cc2Cl)CC1
1.1	0.75	Cn1c(=O)c2c(nc(NCc3ccc4c(c3)OCO4)n2Cc2ccccc2F)n(C)c1=O
0.68	-0.58	COc1cccc(NC(=O)c2ccc3c(c2)N(CC(=O)N2CCCCC2)C(=O)C(C)(C)O3)c1
1.5	-0.01	COc1cc(CNCc2ccccn2)ccc1OCc1cccc(Cl)c1
0.24	-0.77	COc1ccc(CN2CCOCC2)cc1OC
1.5	0.11	COCC(C)NC(=O)CSc1nc2ccccc2c(=O)n1CCc1ccc(S(N)(=O)=O)cc1 (stereo unspecified)
1.2	-0.35	COc1ccc(NC(=O)CS(=O)(=O)c2cn(CC(=O)N3CCOCC3)c3ccccc23)cc1
0.24	0.34	COc1ccc(-c2csc(NC(=O)Cc3ccccc3F)n2)cc1OC
1	0.85	COc1ccccc1N(C(C)=O)C1SC(=O)N(c2ccccc2)C1=O (stereo unspecified)
0.1	0.02	CC(=O)Cc1cc2cc([N+](=O)[O-])ccc2oc1=O
0.34	0.01	COc1ccc(CCNC(=O)CSCc2ccc([N+](=O)[O-])cc2)cc1OC
1.9	-0.32	CN(C)CCNc1nc2c(c(=O)[nH]c(=O)n2C)n1CCCc1ccccc1

# Random excerpt: 7 compounds from above
KCNQ2 enhance	KCNQ2 enhance baseline	mol
1.1	0.75	Cn1c(=O)c2c(nc(NCc3ccc4c(c3)OCO4)n2Cc2ccccc2F)n(C)c1=O
1.9	-0.32	CN(C)CCNc1nc2c(c(=O)[nH]c(=O)n2C)n1CCCc1ccccc1
1.5	0.11	COCC(C)NC(=O)CSc1nc2ccccc2c(=O)n1CCc1ccc(S(N)(=O)=O)cc1 (stereo unspecified)
0.14	-0.62	CCc1c(C)c(C#N)c2nc3ccccc3n2c1NC
0.68	-0.58	COc1cccc(NC(=O)c2ccc3c(c2)N(CC(=O)N2CCCCC2)C(=O)C(C)(C)O3)c1
0.34	0.01	COc1ccc(CCNC(=O)CSCc2ccc([N+](=O)[O-])cc2)cc1OC
1.2	-0.51	CC(=O)N1CCN(c2ccc(NC(=O)c3ccc(N4CCCC4)c([N+](=O)[O-])c3)cc2Cl)CC1

# Assay outcomes (PubChem)
